# Screens deposited in PubChem BioAssay by several laboratories.
# Mtb betalactam: beta-lactam sensitization of Mtb H37Rv; AID 434955; inhibition, % at 25 µM; actives 0.27% (n = 330,000); M. tuberculosis H37Rv growth with meropenem, percent inhibition; hits of this screen are not shown here;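 active = about 74% or more and at least 40 points above the plate without the antibiotic, then above 30% in a dose series; inconclusive = first-round hits that could not be retested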;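 note: growth measured after seven days incubation then overnight dye step; 0% = bacteria only wells and 100% = bacteria with antibiotic; twin plates without the antibiotic show which effects depend on it; some results filed as inactive read as strong as hits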
# YopH inh: blocks Yersinia enterocolitica YopH tyrosine phosphatase. fluorescence Ex485/Em525. inhibition, %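 (about 10 µM by stock and volumes)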. actives 0.16% (n = 140,000);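 active = inhibition of 50% or more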;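 note: controls were vehicle for no effect and minimum signal wells for full effect; inactives centre near -20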
# Arbovirus inh: arbovirus infection inhibition. arbovirus infection cell-based antiviral screen. actives 0.37% (n = 200,000). AID 1251. inhibition, % at 10 µM;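 active = inhibition from about 30%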;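 note: bluetongue infection of BSR cells; cell survival read as ATP light after 72 h; 0% = infected wells without compound and 100% = uninfected wells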
# RecA intein inh: inhibitors of M. tuberculosis RecA intein splicing. actives 0.75% (n = 290,000). cell-free RecA intein splicing, fluorescence. P9WHJ3. AID 2221. inhibition, %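 (about 9 µM by stock and volumes)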; in the data active = inhibition above about 30%; inconclusive = no clear call, values can overlap the other calls;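 note: 0% = vehicle wells and 100% = reference inhibitor control wells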
# Target sequence (P9WHJ3 whole entry, looked up): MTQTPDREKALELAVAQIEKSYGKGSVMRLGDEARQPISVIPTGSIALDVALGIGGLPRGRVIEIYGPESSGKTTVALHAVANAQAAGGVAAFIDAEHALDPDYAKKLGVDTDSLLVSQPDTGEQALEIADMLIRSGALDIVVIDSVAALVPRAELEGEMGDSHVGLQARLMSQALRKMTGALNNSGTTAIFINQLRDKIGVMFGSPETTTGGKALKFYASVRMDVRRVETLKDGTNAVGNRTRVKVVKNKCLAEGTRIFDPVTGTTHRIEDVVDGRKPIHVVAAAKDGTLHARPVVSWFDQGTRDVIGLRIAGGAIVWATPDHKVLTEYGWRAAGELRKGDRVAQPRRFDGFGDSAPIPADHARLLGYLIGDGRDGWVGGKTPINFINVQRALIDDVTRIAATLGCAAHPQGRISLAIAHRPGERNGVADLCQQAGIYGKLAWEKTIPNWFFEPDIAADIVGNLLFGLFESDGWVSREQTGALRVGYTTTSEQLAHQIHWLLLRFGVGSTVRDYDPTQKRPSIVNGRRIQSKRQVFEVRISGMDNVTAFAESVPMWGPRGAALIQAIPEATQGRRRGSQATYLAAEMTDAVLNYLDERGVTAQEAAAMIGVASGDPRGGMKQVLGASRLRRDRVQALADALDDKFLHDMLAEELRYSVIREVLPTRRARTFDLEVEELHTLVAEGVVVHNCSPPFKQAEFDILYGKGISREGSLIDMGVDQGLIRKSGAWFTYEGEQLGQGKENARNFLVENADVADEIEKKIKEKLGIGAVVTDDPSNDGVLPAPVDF
# Mtb growth: M. tuberculosis H37Rv growth inhibitors, H37Rv strain (AID 1626); actives 0.95% (n = 220,000); one-dose inhibition, % at 10 µM; IC50 in µM for titrated hits; M. tuberculosis H37Rv growth inhibition; higher % means a stronger effect;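 active = confirmed in a dose series; inconclusive = inhibition above 80% but not taken into the dose series; inactive = below 80% or under 30% at every dose of the series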;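 note: bacteria incubated seven days before Alamar blue readout; 0% = bacteria only wells and 100% = bacteria with antibiotic wells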
# Arbovirus inh repeat: also measured in Arbovirus inh; calls as there; inhibition, %; measured here: 10K subset replicate screen; many hits read low in the repeat;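 first of two repeat runs on a subset; 0% = infected and 100% = uninfected wells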
# An asterisk follows results filed as active; ? = inconclusive; / = no result given.
SMILES,Mtb betalactam,YopH inh,Arbovirus inh,RecA intein inh,Mtb growth,others
Cc1cc(OCC(=O)N2CCC(C(N)=O)CC2)c2c(C)c(C)c(=O)oc2c1,-5,/,/,11,/,
CCCc1cc(=O)n2c(nc3ccccc32)[nH]1,-3,-21,-3,-0.4,-1%,
COC(=O)c1cc(COc2ccc3c4c(c(=O)oc3c2)CCC4)c(C)o1,0,-20,2,-2.5,/,
Cc1cc(C)c2cc(C#N)c(NCCOC(=O)c3ccccc3C)nc2c1,4,-34,-4,-10,-5%,
O=C(NCc1cccnc1)C(=O)NCC1OCCCN1S(=O)(=O)c1ccccc1 (stereo not drawn),3,14,9,-0.9,-16%,
COc1ccc2ccccc2c1/C=N/NC(=S)Nc1cc(S(=O)(=O)N2CCOCC2)ccc1N1CCOCC1,-2,-21,-13,-6.2,-2%,
COC(=O)c1ccccc1NC(=O)n1cc(C)cn1,?,-34,-1,-5.0,-5%,
CCc1cccc(C)c1NC(=S)NCC(c1cccnc1)N1CCOCC1 (stereo not drawn),1,-12,-5,-6.6,-5%,
COc1cccc(CN2CCNC(=O)C2CC(=O)NCCN2CCCCC2=O)c1 (stereo not drawn),-1,/,/,-1.4,/,
O=C(O)Cc1cn(-c2ccccc2)nc1-c1ccccc1,5,/,3,0.9,4%,
Cc1nn(CC(=O)NCCCN2CCCCC2)c(=O)c2cccn12,-3,/,/,-1.7,/,
COC(=O)c1ccc(C2/C(=C(/O)c3ccc(OC)cc3)C(=O)C(=O)N2CC2CCCO2)cc1 (stereo not drawn),6,-23,7,-2.2,-2%,
Cc1cc(C(=O)NCc2ccc(S(N)(=O)=O)cc2)cs1,0,-18,4,-0.5,0%,
C/C(=N\Nc1nc(-c2ccccc2)cs1)c1cccs1,57,-27,-17,3.6,3%,
CC(=O)C1(C)OC(N)=C(C#N)C(c2ccccc2)C1(C#N)C#N (stereo not drawn),-7,-4,-10,1.9,-2%,
O=C(O)CN=CC1=C(O)CC(c2ccccc2)CC1=O (stereo not drawn),9,/,/,-5.7,/,
C#CCOc1ccc(C2C3=C(CC(C)(C)CC3=O)N(CC(=O)O)C3=C2C(=O)CC(C)(C)C3)cc1OC,-2,/,/,-22,/,
N#CCCN(C(=O)CN1C(=O)NC2(CCCC2)C1=O)c1ccccc1F,6,-1,8,1.7,-8%,
COc1ccc(OCC(O)CN2CCN(c3ccc(Cl)cc3)CC2)cc1 (stereo not drawn),5,/,/,1.4,/,
O=C(CSc1nnc(NC(=O)C2CC2)s1)Nc1ccc(F)cc1F,-11,/,/,-1.0,/,

# A draw from above in order of molar mass, rising.
SMILES,Mtb betalactam,YopH inh,Arbovirus inh,RecA intein inh,Mtb growth,others
O=C(O)Cc1cn(-c2ccccc2)nc1-c1ccccc1,5,/,3,0.9,4%,
C/C(=N\Nc1nc(-c2ccccc2)cs1)c1cccs1,57,-27,-17,3.6,3%,
Cc1cc(C(=O)NCc2ccc(S(N)(=O)=O)cc2)cs1,0,-18,4,-0.5,0%,

# Further entries:
SMILES,Mtb betalactam,YopH inh,Arbovirus inh,RecA intein inh,Mtb growth,others
Cc1ccc2nc(-c3ccc(O)c(O)c3)cn2c1,1,/,/,1.2,/,
CCOC(=O)NC(=O)c1cn(-c2ccc(OC)cc2)c(=O)[nH]c1=O,-7,/,/,0.0,/,
Cn1c(=O)c2c(ncn2Cc2cccc(Cl)c2)n(C)c1=O,-1,-47,-3,-1.8,6%,
CCN(Cc1cnn(C)c1)Cc1nc(C(c2ccccc2)c2ccccc2)no1,-13,/,-9,1.4,-4%,
CCOC(=O)N/N=C\c1ccc(OC(=O)c2ccco2)cc1,60,/,5,34*,4%,
COc1ccc(/C=N/NC(=O)COc2cccc3ccccc23)c(C(=O)O)c1OC,-1,-30,-9,2.9,-9%,
OCCC1CN(Cc2cccc3nccnc23)CCN1Cc1ccc(F)c(F)c1 (stereo not drawn),-6,/,-1,0.9,-2%,
CC(=O)Nc1ccc(S(=O)(=O)NC2(C(F)(F)F)NC(=O)N(Cc3ccccc3)C2=O)cc1 (stereo not drawn),?,/,/,2.2,/,
COc1ccc(C(=O)c2coc3ccc(O)c(CN4CCCCC4)c23)cc1,-2,-30,-24,-0.4,5%,Arbovirus inh repeat=-18
O=C1CNC(=S)N1C(CO)c1ccccc1 (stereo not drawn),-10,/,/,-0.9,/,
Cc1cc(C)nc(SCC(=O)N/N=C/c2cccn2-c2ccc(O)cc2)n1,-8,-10,11,-0.1,5%,
COc1ccccc1CCC(=O)Nc1ccc2c(c1)CN(Cc1ccc(C)o1)CC2,28,/,/,-8.1,/,
N#Cc1cc2c(nc1SCc1ccccc1)CCCC2,-4,-16,-4,0.6,8%,
O=[N+]([O-])c1ccc2c(c1)nc1n2CCSC1,-1,/,/,-1.1,-6%,
COc1cccc(-c2nnc(SCC3CNC(=O)O3)n2-c2ccc(Cl)cc2)c1 (stereo not drawn),-2,-31,-4,1.5,-1%,
C=CCn1c(CCNC(=O)c2cccs2)n[nH]c1=S,-1,-21,3,-0.2,-6%,
CC1CCN(C(=O)CSc2nc3c(cnn3-c3ccc(Cl)cc3)c(=O)[nH]2)CC1,-1,-4,27,1.7,13%,
COc1ccc(C2C(C#N)=C(/N=C/N3CCN(C)CC3)OC3=C2C(=O)CC(C)(C)C3)cc1OC (stereo not drawn),8,-31,5,0.1,-3%,
C=CCOc1ccc(/C=N/NC(=O)C(=O)Nc2ccccn2)cc1OC,87,-25,0,-0.3,?,
CCN1C(=O)[C@@H]2[C@@H](c3ccc(-c4ccccc4)cc3)N3CCCC[C@@]3(C(=O)OC)[C@@H]2C1=O,-6,/,/,2.1,/,
CC(C)CCNC(=O)c1cc(-c2cccs2)nc2ccccc12,6,/,/,-0.3,/,
COc1ccc(OC)c(NC(=O)CS(=O)(=O)Cc2nc(-c3ccccc3C)oc2C)c1,-4,-25,2,3.9,2%,
Cc1ccc(S(=O)(=O)N=C2SCCCS2)cc1,-4,-39,7,1.3,-5%,Arbovirus inh repeat=2
CCOC(=O)N1CCN(C(=O)c2ccccc2NC(=O)c2ccc(C(C)(C)C)cc2)CC1,-7,-4,6,0.8,7%,
CCCC(=O)Nc1nc(CC(=O)OCC)cs1,1,/,0,-0.9,-1%,
Cc1ccc(-c2c(C)n([O-])c3c([n+]2=O)CCCCC3)cc1,-8,-33,2,0.1,0%,
S=c1[nH]ncn1/N=C/c1ccc(N2CCOCC2)cc1,3,-4,0,-2.2,-1%,
Cc1cc2nc3c(nc2cc1C)CCCC3,-3,/,/,0.7,/,
COc1ccc(CCNC(=O)Cn2nc(C)n3nc(-c4ccccc4)cc3c2=O)cc1OC,-13,/,/,2.2,/,
CCc1cc(=O)oc2cc(C)cc(OCC(=O)NCC(O)c3ccccc3)c12 (stereo not drawn),-2,/,/,-3.1,/,
O=[N+]([O-])C1C(c2ccccc2)=NOC1c1ccccc1O (stereo not drawn),2,/,/,-2.4,/,
CCCc1cc(C(=O)Nc2ccc(Cl)cn2)cs1,7,/,/,2.8,/,
O=C(Cc1ccc(-n2c(=O)c3ccccc3n(Cc3cccc([N+](=O)[O-])c3)c2=O)cc1)NCC1CCCO1 (stereo not drawn),1,-21,2,5.8,2%,
COC(=O)c1nn(-c2cccc(Cl)c2)ccc1=O,-4,/,10,-0.6,0%,
Cc1ccc(Oc2nc(-c3ccccc3)ncc2S(=O)(=O)c2ccc(C)cc2)cc1,-3,-25,-8,-5.5,-1%,
COc1ccc(N2CCc3c(C)nc4c(OC)cccc4c32)cc1,-1,/,-12,-4.2,4%,
C/C(=N\NC(=O)CN1CCN(S(=O)(=O)c2ccc(C)cc2)CC1)c1cccnc1,-5,-31,2,-2.9,-8%,
COc1cccc(N2CC(C(=O)Nc3nnc(SCC(=O)N4CCCC4)s3)CC2=O)c1 (stereo not drawn),-7,/,/,-2.1,/,
COc1cccc(CNC(=O)CCNC(=O)C2CCN(S(=O)(=O)c3ccc(F)cc3)CC2)c1,0,/,/,-1.5,/,
CNC(=S)N/N=C/c1ccc(N2CCOCC2)s1,7,/,-1,-6.2,-9%,
CC(=O)Nc1ccc(-c2nnc(SCc3ccccc3C#N)n2C)cc1,-1,10,2,0.2,-5%,
CC1CCCC(NC(=O)c2ccc3c(c2)N(Cc2ccccc2)C(=O)CS3=O)C1C (stereo not drawn),-2,-33,-21,3.5,-4%,Arbovirus inh repeat=-12
O=C(Cc1ccccc1)Nc1ccccc1C(=O)N1CCCCCC1,-5,/,2,-1.0,-11%,
CCC(CC)c1nc(C#N)c(NCc2ccccc2)o1,55,-10,3,2.5,2%,
OCCC1CN(Cc2cccn2-c2ccccn2)CCN1C1CCCCC1 (stereo not drawn),-3,/,3,-3.0,-2%,
Cc1nnc(SCC(=O)c2ccccc2)n1Cc1ccccc1,-4,-25,1,0.0,-7%,
COc1ccc(-n2cc(-c3ccc(Cl)cc3)[nH]c2=S)cc1,-8,/,/,0.1,-11%,
COc1ccc(C)cc1N(C(=O)c1ccccc1)c1nc2ccccc2s1,0,-43,-8,9.1,7%,
CC(=O)c1c(C)[nH]c(C(=O)CSc2nnc(-c3cccs3)n2Cc2ccccc2)c1C,44,-21,-10,3.0,2%,
O=c1[nH]c(=O)n(Cc2ccccc2)c(O)c1/C=N/Nc1c(F)c(F)c(F)c(F)c1F,-3,/,/,6.4,-2%,
CCCNC(=O)/C=C/c1ccc(S(=O)(=O)Nc2ccccc2OC)cc1,3,/,8,/,-2%,
CCOC(=O)C1(C)C=C(Nc2ccc(O)cc2)C(=O)N1c1ccc(O)cc1 (stereo not drawn),6,-21,-13,-5.2,3%,
CC(=O)N(CC(C)(C)CC=C(C)C)c1ccccc1,-4,-32,4,0.9,-13%,
COc1ccccc1C(=O)N/N=C/c1ccc(Cl)s1,0,-14,2,-1.6,2%,
COc1ccc(-c2cc(C(=O)Nc3c(C)nn(Cc4ccc(Cl)cc4)c3C)no2)cc1,-2,-10,-3,0.6,1%,
Cc1cc(C)c(C(=O)CSc2nnc(N)s2)c(C)c1,2,/,-2,0.8,-3%,
Cc1ccccc1N1CCN(c2ncnc3scc(-c4cccs4)c23)CC1,99,1,1,6.6,-25%,
COc1ccc(S(=O)(=O)N(CC(=O)NCc2ccco2)c2ccccc2)cc1OC,-4,-41,0,-1.0,-3%,
N#Cc1ccc(C(=O)Nc2nnc(-c3ccco3)o2)cc1,92,/,9,-0.5,8µM*,
Cc1onc(-c2c(F)cccc2Cl)c1C(=O)N1CCCc2ccccc21,-3,-35,-26,1.5,0%,
# (continued)
SMILES,Mtb betalactam,YopH inh,Arbovirus inh,RecA intein inh,Mtb growth,others
O=C(/C=C/c1cccc(Cl)c1)N1CCC(Cc2ccccc2)CC1,5,-13,-15,3.7,0%,
O=C1NN(c2ccc(Br)cc2)C(=O)/C1=C\c1ccc(O)cc1O,96,/,/,-60,/,
COc1ccc(NC(=O)c2cnc(NS(=O)(=O)c3ccccc3)nc2)cc1,-3,/,/,0.3,/,
CCOC(=O)c1nn(-c2ccccc2)c(C#N)c1NC(=O)c1nn(CC)cc1Br,84,-26,-5,0.9,12%,
CN1CCC2(CC1)NC(=O)NC2=O,-10,-22,-2,/,-18%,

# Compounds listed so far with an aryl thioether with sulfur outside any ring:
SMILES,Mtb betalactam,YopH inh,Arbovirus inh,RecA intein inh,Mtb growth,others
O=C(CSc1nnc(NC(=O)C2CC2)s1)Nc1ccc(F)cc1F,-11,/,/,-1.0,/,
Cc1cc(C)nc(SCC(=O)N/N=C/c2cccn2-c2ccc(O)cc2)n1,-8,-10,11,-0.1,5%,
N#Cc1cc2c(nc1SCc1ccccc1)CCCC2,-4,-16,-4,0.6,8%,
COc1cccc(-c2nnc(SCC3CNC(=O)O3)n2-c2ccc(Cl)cc2)c1 (stereo not drawn),-2,-31,-4,1.5,-1%,
CC1CCN(C(=O)CSc2nc3c(cnn3-c3ccc(Cl)cc3)c(=O)[nH]2)CC1,-1,-4,27,1.7,13%,
COc1cccc(N2CC(C(=O)Nc3nnc(SCC(=O)N4CCCC4)s3)CC2=O)c1 (stereo not drawn),-7,/,/,-2.1,/,
CC(=O)Nc1ccc(-c2nnc(SCc3ccccc3C#N)n2C)cc1,-1,10,2,0.2,-5%,
Cc1nnc(SCC(=O)c2ccccc2)n1Cc1ccccc1,-4,-25,1,0.0,-7%,
CC(=O)c1c(C)[nH]c(C(=O)CSc2nnc(-c3cccs3)n2Cc2ccccc2)c1C,44,-21,-10,3.0,2%,
Cc1cc(C)c(C(=O)CSc2nnc(N)s2)c(C)c1,2,/,-2,0.8,-3%,

# Not all compounds are listed; rates above refer to the full screens.
